VDR inh – Inhibitors of the vitamin D receptor (VDR): qHTS; Vitamin D3 receptor (Homo sapiens), P11473; VDR-SRC2-3 peptide fluorescence polarization, 2 h; Potency, µM, without a hit: max response, negative = inhibition, hits mostly inhibitors; hit rate 0.93% among 400,000; active = well fitted inhibition curve with a large enough effect; inconclusive = small, poorly fitted or top-dose-only effect, or another doubt; inactive = no such curve, though single readings can be large or run the other way; also: series mostly up to about 120 µM
Target sequence (P11473 whole entry, looked up): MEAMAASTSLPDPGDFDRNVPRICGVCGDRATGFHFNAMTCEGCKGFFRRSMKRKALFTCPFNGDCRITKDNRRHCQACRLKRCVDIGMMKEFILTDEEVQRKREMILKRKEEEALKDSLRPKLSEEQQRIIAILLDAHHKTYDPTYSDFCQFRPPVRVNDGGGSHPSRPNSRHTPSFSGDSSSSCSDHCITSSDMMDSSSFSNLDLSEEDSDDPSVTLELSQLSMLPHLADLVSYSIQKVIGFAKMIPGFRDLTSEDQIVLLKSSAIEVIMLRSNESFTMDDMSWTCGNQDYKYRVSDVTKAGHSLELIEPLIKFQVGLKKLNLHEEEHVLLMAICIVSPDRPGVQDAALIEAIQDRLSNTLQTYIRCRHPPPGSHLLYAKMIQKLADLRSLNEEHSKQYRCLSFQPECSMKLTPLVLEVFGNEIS
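Fluorescence polarization assay of small-molecule disruption of VDR binding to coregulator peptide SRC2-3. Compounds and controls pin-transferred, then read after 2 h incubation at ambient room temperature.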
An asterisk follows results filed as active; ? = inconclusive; & = joins results of further samples; [ ] = dose if it differs, or a comment. % is scaled to controls: 0 for no effect and ±100 for the full control effect; potency is read from the fitted curve at half-maximal effect. Not all compounds are listed; rates above refer to the full screens.

VDR inh	compound
32.8%[activator]	CCOC(=O)C1(CC)NC(c2ccc(OC)cc2OC)C2C(=O)N(C)C(=O)C21 (centres undefined)
2.1%	CCC1Oc2ccc(C)cc2N(CC(=O)NCCCN2CCCC2)C1=O (centres undefined)
-20.0%	COC(=O)c1ccc(-c2nc(CN3CCN(Cc4cccc(C)c4)CC3)c(C)o2)cc1
-9.1%	CCOC(=O)C1=C(CN2CCN(c3ccc(F)cc3)CC2)NC(=O)NC1c1cccs1 (centres undefined)
8.3%	CCOC(=O)C1(Cc2ccc(OC)cc2)CCN(C(=O)CN2CCCCC2=O)CC1
1.7%	O=C(O)C1CCCCC1C(=O)Nc1ccc2c(c1)OCCO2 (centres undefined)
-10.2%	O=C(NC(=S)Nc1cccnc1)c1cccc(Br)c1
-8.2%	Cc1cc(NC(=O)CSCC(=O)Nc2nc3ccccc3[nH]2)no1
?	COCCOC(=O)/C(C#N)=C/c1cn(Cc2ccccc2)nc1-c1cccnc1
3.4%	CO/N=C/c1c(-c2ccc(Cl)cc2)nc2cc(C)ccn12
-0.8%	C=CCn1c(SCc2ccc(C(=O)NCCO)cc2)nc2ccccc2c1=O
2.4%	Cc1cc2nn(-c3ccc(Cl)cc3)nc2cc1NC(=O)C(C)C
4.4%	Cc1cc(C)c(C)c(S(=O)(=O)N2CCN(c3ncnc4ccccc34)CC2)c1C
6.9%	Cc1cc2c(C)nc(-c3ccccc3)nc2o1
7.4%	COc1ccc(N(CC(=O)N/N=C/c2cccnc2)S(=O)(=O)c2ccc(C)cc2)cc1OC

A second format for 3 compounds above.
O=C(NC(=S)Nc1cccnc1)c1cccc(Br)c1
  VDR inh: -10.2%

O=C(O)C1CCCCC1C(=O)Nc1ccc2c(c1)OCCO2 (centres undefined)
  VDR inh: 1.7%

Cc1cc2c(C)nc(-c3ccccc3)nc2o1
  VDR inh: 6.9%

An excerpt from above in order of their number in VDR inh, ascending:
VDR inh	compound
-20.0%	COC(=O)c1ccc(-c2nc(CN3CCN(Cc4cccc(C)c4)CC3)c(C)o2)cc1
2.4%	Cc1cc2nn(-c3ccc(Cl)cc3)nc2cc1NC(=O)C(C)C
6.9%	Cc1cc2c(C)nc(-c3ccccc3)nc2o1

Additional entries follow.
VDR inh	compound
20.7%	Cc1cc(C)nc(Nc2n[nH]c(-c3ccc(C(C)(C)C)cc3)n2)n1
3.3%	CCCn1c(N)c(N(CCOC)C(=O)c2cccc(Cl)c2)c(=O)[nH]c1=O
-1.2%	OCCCCNc1cccc2ccccc12
-9.3%	CCC(C)NC(=O)C1=CCN(S(=O)(=O)c2ccc(C)cc2)CC1 (centres undefined)
5.3%	COc1ccc(CCNC(=O)CCC(=O)N2CCOc3ccc(Cl)cc32)cc1OC
-12.5%	COC(=O)c1ccc(C(=O)NC2CCSc3ccccc32)cc1 (centres undefined)
-1.2%	Cc1ccc(-c2cn(CCN)c(-c3ccncc3)n2)cc1
-16.4%	CCOC(=O)Cn1c(=O)c2c(nc3n2CCCCN3c2ccc(C)cc2)n(C)c1=O
1.4%	COc1ccc(NC(=O)CSc2nnc(Cc3ccc(C)cc3)c(=O)n2N)cc1OC
-11.1%	COc1ccc(Nc2ccc([N+](=O)[O-])cc2[N+](=O)[O-])cc1
-17.9%	CC(=O)NCCC(=O)Nc1ccc(C(N)=O)cc1
-5.0%	Cc1noc(/C=C/c2ccco2)c1S(=O)(=O)N1CCC(C(=O)NCc2ccco2)CC1
-24.6%&4.5%	NNC(=O)Cn1c(SCc2ccccc2)nc2ccccc21
4.4%	Cc1ccc(CN2CCSCC2)cc1
7.0%	Cc1nnc2sc(-c3cccc(F)c3)nn2c1=O
1.4%	CC(Sc1nnnn1C1CCCC1)C(=O)Nc1cccc(S(=O)(=O)N2CCOCC2)c1 (centres undefined)
-17.3%	O=C(NC(=S)Nc1ccc(CN2CCCCC2)cc1)c1cc2ccccc2o1
3.0%	NS(=O)(=O)c1ccc(CCNc2ncnc3c2c(-c2ccccc2)cn3-c2ccc(F)cc2)cc1
-2.7%	N#Cc1c(C(F)(F)F)cc(-c2cccs2)nc1SCc1ccccc1F
8.6%	C[C@H]1CC[C@@]2(O[C@@H](CCO)C[C@H](O)[C@H]2O)O1
3.1%	COc1ccc(N2CCN(C(=O)CCNS(=O)(=O)c3cccs3)CC2)cc1
-11.6%	COc1ccc(C)cc1S(=O)(=O)Nc1cccc(-c2cn3cccnc3n2)c1
0.8%	CC1CCCC(NC(=O)CSc2n[nH]c(=O)n2Cc2ccccc2)C1C (centres undefined)
5.1%	COC(=O)CCc1c(C)c(C#N)c2nc3ccccc3n2c1N1CCCC1
-10.5%	S=C(NC1CCCCC1)N1CCN(C/C=C/c2ccccc2)CC1
-16.8%	CCCCn1c(CCNC(=O)CC)nc2ccccc21
-28.7%	CN(/N=C/c1cccnc1)C1=NS(=O)(=O)c2ccccc21
-2.5%	COc1ccc(OCC(=O)OCC(=O)c2ccc(OC)c(F)c2)cc1
16.7%	CCOc1ccc(NC(=O)Cn2c(=O)oc3cc(S(=O)(=O)N4CCCCCC4)ccc32)cc1
15.2%	CC(=O)c1c(OC(=O)c2ccccc2)ccnc1C(F)(F)F

Next section, starting with the last 6 of the part before.
VDR inh	compound
-10.5%	S=C(NC1CCCCC1)N1CCN(C/C=C/c2ccccc2)CC1
-16.8%	CCCCn1c(CCNC(=O)CC)nc2ccccc21
-28.7%	CN(/N=C/c1cccnc1)C1=NS(=O)(=O)c2ccccc21
-2.5%	COc1ccc(OCC(=O)OCC(=O)c2ccc(OC)c(F)c2)cc1
16.7%	CCOc1ccc(NC(=O)Cn2c(=O)oc3cc(S(=O)(=O)N4CCCCCC4)ccc32)cc1
15.2%	CC(=O)c1c(OC(=O)c2ccccc2)ccnc1C(F)(F)F
-4.2%	CCCCN1C=C(C(C)=O)C(=O)CC1
-1.2%	COc1ccc(/C=N/Nc2nnc(-c3ccccc3)c(=O)[nH]2)cc1
-6.3%	Cc1ccc(NC(=O)COC(=O)CCC(=O)c2cccs2)cc1
3.5%	COc1cc(NC(=O)C2CCN(c3cnc4ccccc4n3)CC2)cc(OC)c1OC
2.7%	Nc1nc(Cn2nnc(-c3ccccc3Cl)n2)nc(N2CCOCC2)n1
-23.2%	CCCNC(=O)c1ccc(N2CCC3(CC2)CC(c2cccc(Br)c2)=NO3)c(NC(=O)c2ccco2)c1
-22.2%	CCC(=O)Nc1nc2nc(-c3ccccc3)cc(=O)n2[nH]1
-5.8%	CCc1ccc(C(CC(=O)O)N2Cc3ccccc3C2=O)cc1 (centres undefined)
7.5%	COC(=O)c1[nH]c2ccccc2c1NC(=O)Oc1ccccc1
-17.0%	O=C(CN1CCN(S(=O)(=O)c2ccc(Br)cc2)CC1)Nc1ccccc1C(=O)c1ccccc1
1.0%	CCCC(=O)Nc1nc2ccc(OCC)cc2s1
-9.2%	O=C(N/N=C1\CCc2ccccc21)c1ccccc1Cl
-7.3%	CCOc1ccccc1NC(=O)C1CCC(CNc2c(N3CCCCC3)c(=O)c2=O)CC1 (centres undefined)
?	O=C(OC(C(=O)Nc1ccc(Cl)cc1C(F)(F)F)c1ccccc1)c1c(Cl)cccc1Cl (centres undefined)
?	COc1cc(C(=O)NC(C)Cc2cccs2)cc(OC)c1OC (centres undefined)
6.1%	CC(C)CN1CCCC2(CCN(C(=O)c3cc(C(F)(F)F)cc(C(F)(F)F)c3)CC2)C1
3.7%	CC1CN(c2nnnn2-c2ccccc2)CC(C)O1 (centres undefined)
11.7%	COc1cc2c(cc1OC)CN(C(=O)c1ccc(S(=O)(=O)N3CCCC3)cc1)CC2
-15.0%	O=C(Cn1[nH]c(=O)c2ccccc2c1=O)NC1CCN(Cc2ccccc2)CC1
-7.3%	CCCCn1c(N)c(N(CC(C)C)C(=O)c2cc(=O)[nH]c3ccccc23)c(=O)[nH]c1=O
-14.5%	O=C(OCCCc1cc2ccccc2c(=O)o1)c1ccc(F)cc1
10.1%	CC(=O)Nc1ccc(C(=O)Nc2cccc(-c3cnc4ccccc4n3)c2)cc1
-9.7%	CCCCCOC(=O)C(C)Sc1n[nH]c(=O)[nH]c1=O (centres undefined)
0.0%	NC(=O)Nc1sc(-c2ccc(F)cc2)cc1C(N)=O
6.6%	Cn1c(=O)oc2cc(S(=O)(=O)NC(Cc3ccccc3)C(=O)Nc3ccc(F)cc3)ccc21 (centres undefined)
?	Oc1ccccc1N1CCN(c2nnnn2-c2ccccc2)CC1
?	Cc1ccc(CN(C(=O)c2ccc([N+](=O)[O-])cc2)C2CCS(=O)(=O)C2)o1 (centres undefined)
-6.5%	CCN(CC)c1nc2c(c(=O)n(C)c(=O)n2C)n1CC(=O)c1ccccc1
16.1%	Cc1cccc(N(CC(=O)NC2CCCC2)C(=O)c2csnn2)c1C
-10.8%	COCCN(C(=O)c1csnn1)C(C(=O)NC1CCCCC1)c1ccc(Cl)cc1 (centres undefined)
2.5%	CCn1c(-c2ccc(F)cc2)n[nH]c1=S
6.0%	CC1CCCCN1c1csc2ccc(F)cc2c1=O (centres undefined)
20µM*	CCOC(=O)CSC1=NC(=O)/C(=C\c2ccc(OC(C)=O)cc2)S1
-4.5%	COc1ccc(-n2c(SCc3ccccn3)nc3c(c2=O)SCC3)cc1OC
0.9%	COC(=O)c1sc(NC(=O)COc2ccccc2OC)nc1C
1.5%	Cc1ccc2ncc(C(=O)N3CCN(c4ccccc4F)CC3)c(=O)n2c1
12.6%	CCOc1ccccc1NC(=O)C(Cc1ccccc1)NS(=O)(=O)c1ccc2c(c1)oc(=O)n2C (centres undefined)
-3.1%	CC(C)Cc1ccc(/C=C/C(=O)NC2CC2)cc1
1.3%	CC(=O)c1ccc(N2CCN(C(=O)C3CCN(C(=O)Nc4ccccc4)CC3)CC2)cc1
0.0%	O=C(N/N=C/c1cn(Cc2ccccc2)c2ccccc12)c1cccnc1
-0.7%	CCOC(=O)C1CCCN(C(=O)c2ccc(CNc3c(N4CCC(C)CC4)c(=O)c3=O)cc2)C1 (centres undefined)
8.4%	CC1(C)Cc2c(sc3nc(C4CCCCC4)n(N)c(=O)c23)CO1
12.7%	CCCc1nc(SCC(=O)NNC(=O)C2CCCCC2)c2ccccc2n1
20.1%	CCOC(=O)c1[nH]c2ccc(OC)cc2c1NC(=O)OC
10.7%	COc1ccc(NC(=O)Cn2c(=O)n(CCCCCC(=O)NCc3ccc4c(c3)OCO4)c(=O)c3sccc32)cc1Cl
-2.0%	COc1cccc(Nc2nc(-c3sc(NC(=O)c4ccco4)nc3C)cs2)c1
4.5%	CC(CNC(=O)Cc1ccc(NC(=O)N2CCSc3ncccc32)cc1)c1ccccc1 (centres undefined)
7.0%	Cc1c(-c2ccc(Cl)cc2)c(=O)oc2ccc(OC(=O)N3CCOCC3)cc12
-9.5%	Cc1ccc(-n2[nH]c3c4c(ccc3c2=O)C(=O)c2ccccc2C4=O)cc1
6.3%	COc1ccc(S(=O)(=O)N(C)C)cc1NC(=O)CSc1nncs1
6.0%	O=C(O/N=C/C1=C(Cl)c2ccccc2CC1)c1ccc(F)cc1
-27.3%	O=c1c(CCc2ccccc2)nc2cnc(N3CCOCC3)nc2n1C[C@H]1CCCO1
-10.5%&-12.3%	CCOc1ccc(NC(=O)c2cc(S(=O)(=O)N3CCCCC3)c[nH]2)cc1
-13.1%	Cc1cccc(NC(=O)c2cc(Cl)sc2Cl)c1C
1.2%	C=CCNC(=S)N1CCN(CCN=CC2=C(O)CC(c3cccs3)CC2=O)CC1 (centres undefined)
-22.4%	N#CC1C(=O)NC(=O)C(C#N)C12CCCC(C(F)(F)F)C2 (centres undefined)
7.5%	O=C(CCC(=O)c1ccccc1)Nc1ccc(F)c(Cl)c1
-2.8%	COc1ccc(OC)c(CNC(=O)CCC(=O)N2Cc3cccc(OC)c3Oc3ncccc32)c1
-1.1%	CC(C)CC(=O)Nc1ccc(OCC(=O)O)cc1
-13.8%	CSCCC(NS(=O)(=O)c1ccc2c(c1)oc(=O)n2C)C(=O)NC1CCN(Cc2ccccc2)CC1 (centres undefined)

(next part)
VDR inh	compound
?	N#Cc1cnc2c(-c3ccccc3)c(-c3ccccc3)nn2c1N
-7.0%	CCOC(=O)c1ccccc1NC1OC(=O)c2ccccc21 (centres undefined)
10.9%	O=C(N/C(=C/c1ccc(Cl)cc1)c1nc2ccccc2[nH]1)c1ccco1
-8.0%	COc1ccc(-c2occ(C(=O)O)c2C(=O)O)cc1
-26.8%	Cc1ccc(CNCc2cn[nH]c2-c2ccc(C)cc2)cc1
23.0%	CCN(c1ccccc1)S(=O)(=O)c1cc(NC(=O)CN2CCN(C)CC2)ccc1Cl
-1.1%	CC(C)(C)[C@@H]1C=C(C(=O)N2CCN(Cc3ccccc3)CC2)O[C@H](OCc2ccc(CO)cc2)C1
-10.3%&-7.0%	Cc1ccc(N(CC(=O)NCCc2ccc(Cl)cc2)S(=O)(=O)c2c(C)noc2C)cc1
19.8%	Cc1cc(C)c2c(CC(=O)Nc3nnc(CC(C)C)s3)coc2c1
1.5%	Cc1ccc(NC(=O)N2CCC(c3nc4c(nnn4Cc4c(F)cccc4Cl)c(=O)[nH]3)CC2)cc1
9.6%	N#Cc1ccccc1CSC1=NCCS1
-7.7%	CC(OC(=O)CNC(=O)C12CC3CC(CC(C3)C1)C2)C(=O)Nc1ccc(N2CCOCC2)cc1 (centres undefined)
19.1%	CC(C)CC(NC(=O)C(NC(=O)OC(C)(C)C)C(C)C)C(=O)NC(CCC(=O)OCc1ccccc1)C(N)=O (centres undefined)
-18.8%	Cc1cc(SCC(=O)OCC(=O)N(CCC#N)c2ccccc2)nc2ccccc12

Bioassay records: PubChem BioAssay, National Center for Advancing Translational Sciences (NCATS)
